# Anaer choline gr: inhibitors of anaerobic choline-dependent gram-negative bacterial growth. Gram-negative bacterium anaerobic choline minimal medium, absorbance growth; active compounds read low; many inactives read as strong as hits in the columns shown. hit rate 0.2% among 55,000. calls only;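 active = growth z-score on choline under -2 at 7 or 20 h with little or no fall on glycerol, limits in tiers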;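 note: stock transfer was 300 nL into about 50 µL; the organism is E. coli; final concentration not given here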
# Anaer choline gr early: also measured in Anaer choline gr; calls as there; z-score; measured here: choline growth z-score, timepoint 1;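 score of optical density at 7 h as mean of two plates; lower means less growth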
# * = called active by the depositor; i = inactive; & = joins results of further samples. Not all compounds are listed; count on the stated rates, not on these rows.
# Values in the order – Anaer choline gr	Anaer choline gr early
- COc1ccc(NC(=O)CSc2nnc3c4cc(-c5ccccc5)nn4ccn23)cc1
  i	0.13
- CCc1c(C)nc2ncnn2c1Sc1ccccc1NC(=O)C(C)C
  i	-0.5
- CCSC(=N)N
  i	0.01
- CC(C)CCn1c(CCCC(=O)N2CCc3ccccc32)nc2cccnc21
  i	1.19
- O=C(c1cn2c3c(cccc3c1=O)CC2)N1CCc2ccccc2C1
  i	-0.59
- O=C(Nc1ccc(Br)cc1)NC(c1ccccc1)c1nnc(-c2ccccc2)o1 (stereo unspecified)
  i	0.59
- CCc1c(C)nc2ncnn2c1Sc1ccccc1NC(=O)Nc1ccc(OC)c(OC)c1
  i	-1.3
- C=C1C(=O)O[C@@H]2[C@H]3O[C@]3(C)CCC=C(C)CC[C@@H]12
  i	0.1
- Cc1cc(C2CCCN2C(=O)NCc2ccco2)no1 (stereo unspecified)
  i	0.18
- COc1ccc(-n2nnc3c(N4CCN(S(=O)(=O)c5ccc(OC)cc5)CC4)ncnc32)cc1
  i	-0.34

# More entries follow.
# Values in the order – Anaer choline gr	Anaer choline gr early
- CCN(CC)CCCNC(=O)C1CCCN(S(=O)(=O)c2ccc3c(ccn3CC)c2)C1 (stereo unspecified)
  i	1.27
- Cc1cc(C)nc(NC(c2ccc(F)cc2)c2c(NC(=O)c3ccccc3)sc(C)c2C)n1 (stereo unspecified)
  i	2.24
- C#CCOc1ccc(C2CC(=O)Nc3c2c(C)nn3-c2ccc3nnc(C)n3n2)cc1 (stereo unspecified)
  i	0.31
- CN(CCCN1c2ccccc2CCc2ccccc21)CC(=O)c1ccc(Cl)cc1
  i	0.32&-0.17&0.4
- COc1ccc(Nc2cc(C(=O)O)c3ccccc3n2)cc1
  i	-0.46
- CCOc1ccc(NC(=O)N2CC(=O)N(CC(=O)Nc3ccc(C)c(Cl)c3)c3ccccc32)cc1
  i	-1.23
- Fc1cccc(Nc2nc(NC3CCCC3)nc3c2cnn3-c2ccccc2)c1
  i	0.52
- Fc1ccc(F)c(C2NCCc3c2[nH]c2ccccc32)c1 (stereo unspecified)
  i	0.01
- CCC(Oc1ccccc1F)C(=O)Nc1ccc2c(c1)NC(=O)CO2 (stereo unspecified)
  i	1.3
- COc1ccccc1Oc1ccnc(-c2cccc(C(=O)NCCc3ccccc3)c2)n1
  i	-0.34

# Brought forward from above: 4 entries, then new ones.
# Values in the order – Anaer choline gr	Anaer choline gr early
- Fc1cccc(Nc2nc(NC3CCCC3)nc3c2cnn3-c2ccccc2)c1
  i	0.52
- Fc1ccc(F)c(C2NCCc3c2[nH]c2ccccc32)c1 (stereo unspecified)
  i	0.01
- CCC(Oc1ccccc1F)C(=O)Nc1ccc2c(c1)NC(=O)CO2 (stereo unspecified)
  i	1.3
- COc1ccccc1Oc1ccnc(-c2cccc(C(=O)NCCc3ccccc3)c2)n1
  i	-0.34
- COCCNC(=O)N(C)CCc1noc(C2CCCCC2)n1
  i	-0.31
- Cc1ccc(CN2CCNC(=O)C2CC(=O)O)cc1 (stereo unspecified)
  i	0.48
- Cc1nn(-c2nc3ccccc3o2)c2c1C(c1cc(Cl)ccc1F)CC(=O)N2 (stereo unspecified)
  i	-0.47
- Cc1cccc(CNC2=NCCNC23CCN(S(=O)(=O)c2cccs2)CC3)c1
  i	-0.92
- O=C(NC1CC1)c1cncc(NS(=O)(=O)c2ccc(F)cc2)c1
  i	0.93
- COc1ccc(S(=O)(=O)Nc2cccc(-c3nnc(-c4ccccc4)o3)c2)cc1OC
  i	0.35
- Cc1ccc(-c2noc(C3CC3)n2)cc1S(=O)(=O)N1CCC(C(=O)NC2CC2)CC1
  i	2.35
- COc1cccc(N2CCN(C(=O)CCn3cnc4cc(S(=O)(=O)N5CCCC5)ccc43)CC2)c1
  i	-0.02
- O=C(NCc1ccc(F)cc1)c1n[nH]nc1Nc1cccc(F)c1
  i	0.27
- O=C(NCc1ccc(Cl)cc1)c1cnc(N2CCCC2)nc1
  i	1.03

# Other structures:
# Values in the order – Anaer choline gr	Anaer choline gr early
- Cc1c(C2CCN(S(=O)(=O)c3cnc[nH]3)CC2)c2ccccc2n1Cc1ccc(Cl)cc1
  i	0.77
- Cc1cc(N2CCCC2)nc(Nc2ccc(NS(C)(=O)=O)cc2)n1
  i	4.24
- Cc1noc2nc(C)n(CC(=O)NCCCN3CCOCC3)c(=O)c12
  i	-0.52
- O=C(Nc1ccccc1Br)C1CCN(c2cnc3ccccc3n2)CC1
  i	-1.5
- COc1ccc(OCc2nnc3sc(-c4cc5ccccc5o4)nn23)cc1
  i	-0.5
- CN(C)C(=O)c1ccc2c(c1)N(CC(=O)N1CCCCC1)C(=O)C1CCCCN21 (stereo unspecified)
  i	0.05
- CCn1c(SCC(=O)Nc2ccc(C(C)C)cc2)nc2c(=O)[nH]cnc21
  i	0.25
- COC(=O)c1c(NC(=O)C2=Cc3ccc(C)cc3OC=C2)sc2c1CCC(C)C2 (stereo unspecified)
  i	-0.95
- OC(c1ccc(C(F)(F)F)cc1)c1cccnc1 (stereo unspecified)
  i	-0.96
- Cc1ccc2c(=O)c(-c3nc(-c4ccccc4C)no3)cn(CC(=O)N3CCc4ccccc4C3)c2n1
  i	-0.26

# (further entries)
# Values in the order – Anaer choline gr	Anaer choline gr early
- O=C(NC1CC1)C1CCCN1C(=O)c1ccc(NS(=O)(=O)c2ccc(Cl)cc2)cc1 (stereo unspecified)
  i	-0.64
- COc1ccc(-c2cc(C(=O)N3CCN(S(=O)(=O)c4ccc(F)c(C)c4)CC3)[nH]n2)cc1
  i	0.49
- O=C(c1ccccc1F)N1CCN(Cc2cc(=O)n3nc(-c4ccccc4F)sc3n2)CC1
  i	1.21
- CC(=O)Nc1ccc(-c2noc(C3CCCN(C(=O)c4ccc(Cl)cc4)C3)n2)cc1 (stereo unspecified)
  i	-0.28
- O=C(Nc1cnn(-c2ncc(N3CCCC3)cn2)c1)NC1CCCC1
  i	0.34
- CCOc1ccc(-c2nonc2NC(=O)COc2ccc(C)c(C)c2)cc1C
  i	0.2
- O=C(NC1CCCC1)c1cccc(Nc2ccnc(-c3ccccc3)n2)c1
  i	0.8
- CCCc1cc(=O)[nH]c(-n2nc(C)cc2NC(=O)c2c(F)cccc2F)n1
  i	0.27
- CCc1ccc(S(=O)(=O)N2CCC3(CC2)NCCN=C3NCc2ccccc2)cc1
  i	0.63
- Cc1nc2nc[nH]n2c(=O)c1NS(=O)(=O)c1ccc(C2CCCCC2)cc1
  i	-0.18

# (list continues)
# Values in the order – Anaer choline gr	Anaer choline gr early
- CCOc1ccc(-c2noc(CSc3ccc(-c4ccc(Br)cc4)nn3)n2)cc1OC
  i	0.1
- O=C1CC(c2ccccc2OC2CCCC2)c2cnn(-c3nc4ccccc4s3)c2N1 (stereo unspecified)
  i	2.99
- CC(=O)N1CCCc2cc(S(=O)(=O)N3CCCC(C(=O)NCc4ccccn4)C3)ccc21 (stereo unspecified)
  i	-0.97
- CCN(CC)CCn1c(C)c(C)c2c1ncn1nc(Cc3ccccc3)nc21
  i	-1.58
- O=C(Nc1ccc(Br)cc1F)c1ccc(Cn2c(=O)c3cccn3c3cccnc32)cc1
  i	0.69
- O=C(C1CCN(c2cnc(N3CCSCC3)nc2)CC1)N1CCCCC1
  i	0.58
- CCN(C(=O)Cn1cnc2c(sc3ncccc32)c1=O)c1ccccc1
  i	-0.09
- Cc1ccc(-c2cc(Nc3cccc4cccnc34)nc(C)n2)cc1
  i	-0.1
- O=[N+]([O-])c1ccccc1S(=O)(=O)NCC1CCC(CNCC2CCc3ccccc3C2)CC1 (stereo unspecified)
  i	0.24
- COC(=O)c1ccsc1NC(=O)c1ccc2c(c1)OCCO2
  i	0.59

# More results
# Values in the order – Anaer choline gr	Anaer choline gr early
- COc1ccc(OC)c(NC(=O)Nc2ccccc2SCc2cc(=O)n3cc(Cl)ccc3n2)c1
  i	2.17
- CCCCOc1cccc(C(=O)Nc2ccc3c(c2)NC(=O)CO3)c1
  i	1.5
- Cc1cccc(C)c1NC(=O)C[N+](C)(C)C
  i	0.3
- COc1ccc(S(=O)(=O)N2CCN(C(=O)c3nsc4ccc(C)cc34)CC2)cc1Cl
  i	1.22
- Cc1cc(C)c(NC(=O)CCc2nc(CSc3nc4ccccc4o3)no2)c(C)c1
  i	-0.28
- CN(C)c1ccc(-c2noc(-c3ccc(Cl)cc3)n2)cc1
  i	-0.77
- CC1(C(=O)NCc2ccccc2)CCCN(C(=O)c2ccccc2Br)C1 (stereo unspecified)
  i	-0.09
- COc1cccc(NC(=O)c2ccc(Oc3ccnc(-c4cccc(C)c4)n3)cc2)c1
  i	0.31
- CC(C)CCNc1ccc2nncn2n1
  i	-2.46
- O=C(COc1ccccc1)Nc1cc(-c2cccc(Br)c2)nn1-c1ccccc1
  i	0.32

# Additional compounds.
# Values in the order – Anaer choline gr	Anaer choline gr early
- O=C(Nc1ccc(-c2nc3cccnc3s2)cc1)C1c2ccccc2Oc2ccccc21
  i	0.01
- CCOC(=O)Cn1cnc2sc3c(c2c1=O)CCC3
  i	0.04
- CCOCCCN1C(=O)c2cc3sc(CC)cc3n2CC1(C)C(=O)NC1CCC(C)CC1 (stereo unspecified)
  i	0
- Cc1nc2ccn(Cc3ccccc3)c(=O)c2cc1C(=O)NCC1CCCO1 (stereo unspecified)
  i	1.62
- O=c1cc(-c2ccc(O)c(O)c2)oc2cc(O)cc(O)c12
  i	0.34&0.4
- Cc1cccc(Cn2c(C)c(C)c3cc(C(=O)NCc4ccc5c(c4)OCO5)ccc32)c1
  i	0.39
- O=C(NCCN1CCCC1)c1nc(Nc2ccc(F)cc2)c2ccccc2n1
  i	-1.48
- Fc1ccccc1Nc1nc2ccccc2c2nncn12
  i	0.48
- Cc1nn(-c2ccccc2)c2c1-c1sc(C(=O)N3CCN(c4ccccn4)CC3)cc1CC2
  i	0.4
- CC(=O)NC(C)c1nc2ccccc2n1C (stereo unspecified)
  i	0.32

# (next part)
# Values in the order – Anaer choline gr	Anaer choline gr early
- CCc1ccc(NC(=O)Nc2cc(C)cc3c(-c4ccccc4)c(C(=O)N4CCOCC4)[nH]c23)cc1
  i	-0.57
- CCn1c(=O)sc2cc(S(=O)(=O)N3CCN(C(=O)c4cc5ccccc5[nH]4)CC3)ccc21
  i	-0.82
- Cc1nn(-c2ccc(-c3ccccc3)nn2)c(C)c1S(=O)(=O)N1CCOCC1
  i	-0.01
- Cc1ccc(CN2CCCC2c2c(C)noc2C)s1 (stereo unspecified)
  i	-1.99
- COc1cc(-c2noc(-c3ccccc3)n2)ccc1OCC(=O)Nc1ccc(C)cc1
  i	-0.33
- Cc1ccc(Cl)cc1NC(=O)N(C)CCc1noc(C(=O)NCc2ccc(Cl)cc2)n1
  i	-1.67
- Cc1cc(C2CCCN2C(=O)c2cccs2)no1 (stereo unspecified)
  i	0.01
- CC(C)CNC(=O)N1CCC(C)(C(=O)NCc2ccc3c(c2)OCO3)CC1
  i	-0.15
- COc1cccc(N2CC(NC(=O)C3CC3)CC2=O)c1 (stereo unspecified)
  i	-0.07
- Cc1cc(=O)c2cccc(C(=O)Nc3ccccc3C)c2[nH]1
  i	-0.42

# Next section
# Values in the order – Anaer choline gr	Anaer choline gr early
- Cc1ccc(-c2cc3nccc(-c4cc(F)ccc4O)n3n2)cc1
  i	0.87
- COc1ccc(CNC(=O)c2ccc(Oc3ccnc(-c4ccc(F)cc4)n3)cc2)c(OC)c1
  i	0.47
- Cc1cc(=O)n2[nH]c(CCc3ccccc3)nc2n1
  i	-0.24
- Cc1nc(CNC(=O)[C@H]2CSCN2S(=O)(=O)c2ccccc2F)cs1
  i	0.91
- Cc1ccc(-c2ccc(-n3nc(C)c(S(=O)(=O)N4CCC(C)CC4)c3C)nn2)cc1
  i	-0.04
- CN1CCN(C(=O)c2csc(N3CCCCC3)n2)CC1
  i	-0.48
- CCCNC(=O)c1nnn(-c2ccccc2)c1-c1ccncc1
  i	0.16
- Cc1ccc(Nc2nc(-c3ccc(C)c(C)c3)cs2)nc1
  i	0.05
- COc1ccc(-c2nn(-c3ccccc3)cc2C2SCC(=O)N2Cc2ccccc2)cc1 (stereo unspecified)
  i	1.35
- Cc1ccc(NC(=O)N2CCc3c(c(C(=O)NCc4ccccc4)nn3C)C2)cc1
  i	0.1

# (listing goes on)
# Values in the order – Anaer choline gr	Anaer choline gr early
- Cn1nccc1-c1nc(-c2ccc(S(=O)(=O)N3CCOCC3)cc2)no1
  i	0.06
- CC1=C(C(N)=O)C(c2ccc(C)cc2)n2ncnc2N1 (stereo unspecified)
  i	-1.05
- CCn1c(CN(c2ccc(F)cc2)S(C)(=O)=O)nnc1SCC(=O)Nc1ccc2c(c1)OCO2
  i	-1.23
- CCOC(=O)C1CCN(c2ncccc2-c2nnc(-c3ccccc3)o2)CC1
  i	-0.25
- Cc1ccc(C(=O)Nc2cnc3oc(-c4ccccc4OC(C)C)nn3c2=O)cc1
  i	2.51
- COc1ccccc1C1C2=C(CC(c3ccccc3)CC2=O)Nc2onc(C)c21 (stereo unspecified)
  i	0.65
- Cn1ccc2cc(S(=O)(=O)N3CCN(C(=O)Nc4ccc5c(c4)OCO5)CC3)ccc21
  i	0.31
- O=S(=O)(c1cn(Cc2noc(-c3cccc(Cl)c3)n2)cn1)N1CCOCC1
  i	-1.12
- CCNc1cc(C)nc2nc(-c3ccccc3)nn12
  i	-0.96
- CCn1c(C(=O)NCCC(C)C)cc2c(=O)oc3ccccc3c21
  i	0.01
- Clc1ccccc1-c1noc(Cc2nc(-c3ccc4c(c3)OCO4)cs2)n1
  i	0.48
- Cn1c(=O)c2c(-c3cccc(Cl)c3)c(NCc3ccccc3)oc2n(C)c1=O
  i	-1.44
- Cn1cnc(S(=O)(=O)N2CCC(c3nnc(C(=O)Nc4ccccc4)s3)CC2)c1
  i	-1.01

# In the list so far, 2 have a COOH group:
# Values in the order – Anaer choline gr	Anaer choline gr early
- COc1ccc(Nc2cc(C(=O)O)c3ccccc3n2)cc1
  i	-0.46
- Cc1ccc(CN2CCNC(=O)C2CC(=O)O)cc1 (stereo unspecified)
  i	0.48

# Screening data (PubChem BioAssay)
